VACV mCherry inh – qHTS for Stage-Specific Inhibitors of Vaccinia Orthopoxvirus: mCherry Reporter Primary qHTS. Vaccinia virus mCherry reporter infection, fluorescence; about a quarter of the inactives have no number. Potency, µM (highest dose often 36.5 µM), for the others: at the top dose activity change, negative = inhibition, hits mostly inhibitors. 310,000 compounds, 0.63% hits. AID 720579, 2013; active = well fitted inhibition curve with a large enough effect; inconclusive = small, poorly fitted or top-dose-only effect; inactive = no such curve, though single readings can be large or run the other way; tested in A549 cells; also: nearly all actives have a fitted effect of over 35% in size; inactives centre near -10
Vaccinia Venus – qHTS for Stage-Specific Inhibitors of Vaccinia Orthopoxvirus: Venus Reporter Primary qHTS. Vaccinia virus Venus reporter expression, fluorescence. Potency, µM (series often up to 36.5 µM), without a hit: at the highest dose activity change, negative = inhibition, actives largely listed as inhibitors. 330,000 compounds, 0.46% hits. AID 720580, 2013; active means well fitted inhibition curve with a large enough effect; inconclusive means small, poorly fitted or top-dose-only effect; inactive means no such curve, though single readings can be large or run the other way; tested in A549 cells; also: nearly all actives have a fitted effect of over 30% in size; inactives centre near -10
Active calls of the source: *; i = inactive; ? = inconclusive; . = no result given; & = joins results of further samples. % is scaled to controls: 0 for no effect and ±100 for the full control effect; potency is read from the fitted curve at half-maximal effect.

No.	Molecule	VACV mCherry inh	Vaccinia Venus
1	Cc1nc(NCCc2ccccc2F)c(C#N)c(C)c1[N+](=O)[O-]	.	-15%
2	CCOc1ccc(C(=O)NCC(=O)N2CCN(C/C=C/c3ccccc3)CC2)cc1OCC	0%	-22%
3	CC(C)CN1CCC(=O)N(CCSc2ccc(Br)cc2)CC1	i	-24%
4	Cc1cc(C)n(C2CC(=O)N(c3ccccc3)C2=O)n1 (stereo not drawn)	-21%	-7%
5	CCOC(=O)c1c(C)oc2c1c(/C=N/c1ccccn1)c(O)c1ccccc12	i	-11%
6	CC/C(=N/NC(=O)CCC(=O)Nc1ccccc1OC)c1ccccc1	i	-8%
7	CCOC(=O)c1ccccc1NC(=O)c1ccccc1N(C)S(C)(=O)=O	-23%	-13%
8	CCCCC(=O)Nc1ccc(C(=O)c2ccccc2)cc1	-19%	-22%
9	CC1CC1C(=O)Nc1cc(S(=O)(=O)N2CCOCC2)ccc1N1CCCC1 (stereo not drawn)	-5%	-7%
10	Cc1ccc(SCC(=O)c2ccc[nH]2)cc1	-27%	-8%
11	Clc1ccc(CSCCc2ccncc2)cc1	.	-22%
12	NC(=O)N1CCc2ccccc21	-21%	-1%
13	Cc1ccc(NC(=O)COC(=O)CCc2ccc(S(=O)(=O)N3CCOCC3)cc2)cc1C	-2%	-5%
14	O=C(NCc1ccco1)C(c1ccncc1)N(CCC1=CCCCC1)C(=O)Cn1nnc2ccccc21 (stereo not drawn)	.	0%
15	Cc1cc(Br)ccc1NC(=O)CN(C)C(=O)CN1C(=O)NC2(CCCC2)C1=O	-2%	-13%
16	COc1cc(C(=O)OCC(=O)c2cc(C)n(CC3CCCO3)c2C)ccc1OCC(=O)N1CCOCC1 (stereo not drawn)	-6%	-12%
17	COC(=O)C1=C(c2ccc(OCc3ccccc3)cc2)C[C@@H]2CC[C@H]1N2C(=O)NCc1ccc2c(c1)OCO2	?	?
18	CCCC(=O)OCc1cnc(C)c2oc(=O)c(C(=O)Nc3ccccc3)cc12	-7%	-3%
19	Cc1cccc(COc2ccc(/C(O)=C3\C(=O)C(=O)N(CCN(C)C)C3c3ccncc3)cc2)c1 (stereo not drawn)	-20%	-18%
20	COCC(=O)Nc1cc(C(=O)N2CCSCC2)cc2nc(-c3ccccc3)n(C)c12	0%	-12%
21	COc1cccc(/C=C/c2nc(C#N)c(NCCc3ccc(OC)c(OC)c3)o2)c1	-13%	1%
22	CCOC(=O)C1=C(c2ccccc2)N=C2SCC(=O)N2C1c1ccc2c(c1)OCO2 (stereo not drawn)	.	-11%
23	COC(=O)CN(c1nc(C)c(Cl)c(OC)n1)S(=O)(=O)c1ccc(C)cc1	-14%	?
24	CCOC(=O)c1[nH]c2ccc(OC)cc2c1NC(=O)CN1CCc2ccccc2C1	?	?
25	COC(=O)[C@]1(C)N[C@H](CN(C)S(=O)(=O)c2ccc(F)cc2)[C@@H]2C(=O)N(Cc3ccccc3)C(=O)[C@@H]21	i	-1%

Sorted by molar mass (highest first): some entries from above
No.	Molecule	VACV mCherry inh	Vaccinia Venus
16	COc1cc(C(=O)OCC(=O)c2cc(C)n(CC3CCCO3)c2C)ccc1OCC(=O)N1CCOCC1 (stereo not drawn)	-6%	-12%
14	O=C(NCc1ccco1)C(c1ccncc1)N(CCC1=CCCCC1)C(=O)Cn1nnc2ccccc21 (stereo not drawn)	.	0%
13	Cc1ccc(NC(=O)COC(=O)CCc2ccc(S(=O)(=O)N3CCOCC3)cc2)cc1C	-2%	-5%
8	CCCCC(=O)Nc1ccc(C(=O)c2ccccc2)cc1	-19%	-22%
10	Cc1ccc(SCC(=O)c2ccc[nH]2)cc1	-27%	-8%
12	NC(=O)N1CCc2ccccc21	-21%	-1%

Down the list, as entered above.
Compounds 17 to 23 in Vaccinia Venus read ?, -3%, -18%, -12%, 1%, -11%, ?
Compounds 17 to 23 in VACV mCherry inh read ?, -7%, -20%, 0%, -13%, ., -14%

(listing goes on)
No.	Molecule	VACV mCherry inh	Vaccinia Venus
26	CCOc1ccc(CC(=O)NCc2cn3c(C)csc3n2)cc1	-6%	0%
27	Clc1ccc(Cl)c(OCc2cc(-c3ccccc3Cl)on2)c1	.	-6%
28	CCOc1nc(OCC)nc(N2CCC(C)CC2)n1	-5%	-29%
29	COc1ccc(C2/C=C\CN(C(=O)C3CCCC3)[C@H](Cc3ccccc3)C(=O)N2Cc2ccc(F)cc2)cc1 (stereo partly drawn)	-25%	?
30	CCCCC(c1nnnn1CCOC)N1CCN(c2cccc(OC)c2)CC1 (stereo not drawn)	-14%	-17%
31	CC1Cc2ccccc2N1Cc1cccc([N+](=O)[O-])c1 (stereo not drawn)	-14%	4%
32	O=C(O)c1cc(O)ccc1-c1ccc(O)cc1	i	-22%
33	O=C(O)C1CCCCC1C(=O)Nc1ccccn1 (stereo not drawn)	-10%	-4%
34	Cc1cc(CNCc2c(C(=O)N3CCCCCCC3)nc3ccc(Cl)cn23)nn1C	i	-9%
35	O=C(c1cc(S(=O)(=O)N2CCOCC2)ccc1F)N1CCC2(CC1)OCCO2	i	-6%
36	O=C1CC(c2ccc(Br)cc2)c2c(c3ccccc3oc2=O)O1 (stereo not drawn)	-3%	0%
37	CCc1ccccc1NC(=O)Nc1ccc2snnc2c1	-6%	-6%
38	CC1CCN(CC(O)COCCC23CC4CC(CC(C4)C2)C3)CC1 (stereo not drawn)	?	-28%
39	CC1CCN(CC(=O)Nc2cc(C(F)(F)F)ccc2Cl)CC1	i	-7%
40	COc1ccc(NC(=O)N2CCN(c3cc(-c4noc(C)n4)ccc3C)CC2)c(OC)c1	-21%	-19%
41	COc1ccc(C(C(=O)NC(C)(C)C)N(CCc2ccc(OC)c(OC)c2)C(=O)CCC(=O)Nc2cc(C)on2)cc1 (stereo not drawn)	i	-10%
42	O=C(Cc1cccc2ccccc12)Nc1c(F)cccc1F	i	-17%
43	O=C(CN1C(=O)CSC1=O)N1CCCC(Nc2ccc(F)cc2)C1 (stereo not drawn)	-5%	-14%
44	CCn1c(C(=O)N2CCCC(C(=O)N3CCN(c4ccccc4)CC3)C2)cc2sccc21 (stereo not drawn)	-14%	-13%
45	COc1cccc(-c2cc(C(=O)Nc3cc(OC)c(OC)c(OC)c3)on2)c1	-22%	-26%
46	c1cnc2c(c1)ncc1cscc12	i	-11%
47	COc1ccc(/C=N/NC(=O)CSc2n[nH]c(=O)[nH]c2=O)cc1	-25%	-7%
48	CC(C)(C)c1ccc(OC(=O)Nc2ccc(O)c(C(=O)O)c2)cc1	i	-10%
49	C/C(N)=C(/C#N)C(=O)COC(=O)CNS(=O)(=O)c1ccc(C)cc1	-4%	-10%
50	COc1ccc(CC(=O)NNS(=O)(=O)c2cccc([N+](=O)[O-])c2)cc1OC	i	-10%

The listing continues:
No.	Molecule	VACV mCherry inh	Vaccinia Venus
51	CCc1ccccc1N1C(=O)C2CC=CCC2C1=O (stereo not drawn)	.	-9%
52	CC(C)(C)c1ccc(C2CC2C(=O)N/N=C\c2ccc[nH]2)cc1 (stereo not drawn)	?	4µM*
53	Fc1ccc(-c2[nH]ncc2CN(CC2CCC2)CC2CCCO2)c(F)c1 (stereo not drawn)	i	0%
54	Oc1nc(Nc2cccc(Cl)c2)sc1/C=C1\C=Nc2ccccc21	?	?
55	CCSc1nnc(NC(=O)CSc2nnc(C)c(=O)n2N)s1	i	-3%
56	COc1ccc(S(=O)(=O)N(C)C[C@@H]2OCc3cnnn3CCCC(=O)N([C@H](C)CO)C[C@@H]2C)cc1	i	-15%
57	COc1ccc(C(C(=O)NC(C)C)N(C(=O)CCC(=O)Nc2nccs2)c2ccccc2F)cc1 (stereo not drawn)	-13%	-15%
58	CN1CCN(C2CCCCC2NS(=O)(=O)c2ccccc2)CC1 (stereo not drawn)	i	-22%
59	CCN(C(=O)CSc1nc2ccccc2n1CC(=O)N1CCCC(C)C1)c1ccccc1 (stereo not drawn)	-2%	-1%
60	COc1ccc(NC(=O)C/C(C)=N/NC(=O)COc2ccc(OC)cc2)cc1	-18%	-7%
61	Cc1nc2nc(CSc3nnc(C)s3)cc(=O)n2[nH]1	-4%	-2%
62	CCc1ccc(-n2c(=O)c3c4c(sc3n(Cc3ccccc3C#N)c2=O)CCC4)cc1	-17%	-4%
63	COc1ccc(OCCCn2c(=O)oc3ccc(C)cc32)cc1	-4%	-8%
64	C/C(NCCc1ccccc1)=C1/CCOC1=O	-2%	4%
65	CCCCOc1ccc(C(=O)NC)cc1	i	-5%
66	CC(C)CC(=O)Nc1cccc(-c2nc3ccccc3[nH]2)c1	-7%&-1%	-3%&-1%
67	COCc1[nH]nc2c1C(c1sccc1C)C(C#N)=C(N)O2 (stereo not drawn)	-15%	-9%
68	O=C(NNC(=S)Nc1ccc(Br)cc1)c1cccnc1	-19%	-3%
69	Cc1ccc2nc(SCC(=O)c3c[nH]c4ccccc34)[nH]c2c1	-17%	-15%
70	COc1cc2[nH]c3c(OC)ncnc3c2cc1OC	?	-22%
71	O=C1NC(=O)/C(=C/c2cc3c(cc2Br)OCO3)S1	-15%	-13%
72	O=C(CSc1nc2ccccc2c(=O)n1-c1ccc(F)c(Cl)c1)Nc1cccc(S(=O)(=O)N2CCOCC2)c1	10%	-9%
73	Cc1ccc(S(=O)(=O)N2CC=C(C(=O)NCc3ccccc3)CC2)cc1	i	-4%
74	Cn1cc(C(c2ccccc2)c2ccc(Cl)s2)c2ccccc21 (stereo not drawn)	-10%	4%
75	COc1ccccc1CN(CC(=O)NCC1CCCO1)C(=O)CNS(=O)(=O)c1ccc(C)cc1 (stereo not drawn)	i	-2%

Two compounds drawn at random from those above, as already listed:
No.	Molecule	VACV mCherry inh	Vaccinia Venus
36	O=C1CC(c2ccc(Br)cc2)c2c(c3ccccc3oc2=O)O1 (stereo not drawn)	-3%	0%
53	Fc1ccc(-c2[nH]ncc2CN(CC2CCC2)CC2CCCO2)c(F)c1 (stereo not drawn)	i	0%

Next section.
No.	Molecule	VACV mCherry inh	Vaccinia Venus
76	Cc1ccccc1N/N=C/c1ccc(N2CCOCC2)cc1	-10%	6%
77	O=C(N/N=C/C(Br)=C/c1ccccc1)C1CC1	-13%	1%
78	CC(C)CCNC(=O)COC(=O)c1ccc(Br)o1	i	-13%
79	CCN(CC(=O)N1CCCC1)S(=O)(=O)c1ccc(OC)cc1	-9%	-1%
80	O=C(NCCc1csc(-c2cccc(F)c2)n1)c1cccs1	-10%	-8%
81	CC1CC(C)CN(C(=O)C(NS(=O)(=O)c2ccc3c(c2)oc(=O)n3C)C(C)C)C1 (stereo not drawn)	i	-4%
82	Cc1cc2oc(C(=O)N(Cc3ccc(N(C)C)cc3)CC3CCCO3)c(C)c2cc1Cl (stereo not drawn)	?	-22%
83	c1cc(C2CCCCC2)ccc1Oc1nc(N2CCOCC2)nc(N2CCOCC2)n1	-3%	-1%
84	Cc1nc(SCC(=O)NCc2ccc3c(c2)OCO3)c(C#N)c2c1CCCC2	i	-17%
85	O=[N+]([O-])c1ccc(F)cc1OCc1cccc(S(=O)(=O)N2CCOCC2)c1	-15%	-14%
86	CC(O)(c1cccc(F)c1)c1nc(-c2cccc(C#N)c2)cs1 (stereo not drawn)	-7%	-15%
87	OC(c1cccs1)c1nccc2ccccc12 (stereo not drawn)	.	1%
88	Nc1c(Cl)cc(-c2csc(N3CCCC3c3nc4cc(Cl)c(Cl)cc4n3CCCO)n2)cc1Cl (stereo not drawn)	?	-14%
89	C#CCOCCOCCOCCNc1nc(N2CCN(C(=O)[C@H]([C@@H](C)CC)n3cc([C@@H](N)Cc4ccc(O)cc4)nn3)CC2)nc(N2CCN(C(=O)[C@H]([C@@H](C)CC)n3cc([C@@H](N)Cc4ccc(O)cc4)nn3)CC2)n1	i	-6%
90	C[C@]12CC[C@@H](O)CC1=CC(=O)C1C2CC[C@]2(C)C(=O)CCC12 (stereo partly drawn)	i	-7%
91	O=c1c(Cl)c(N2CCN(c3ccccc3)CC2)cnn1C12CC3CC(CC(C3)C1)C2	?	?
92	COc1cccc(CNc2ccc(S(N)(=O)=O)cc2)c1OCc1ccccc1F	-7%	-20%
93	Cc1cccc(C(=O)NC2CCN(S(=O)(=O)c3ccccc3)CC2)c1	-12%	-18%
94	NC(=O)c1ccc(NC(=O)CNC(c2ccccc2)c2ccccc2)cc1	-5%	-8%
95	CCOC(=O)c1noc2ncn(CC(=O)Nc3cccc(Cl)c3)c(=O)c12	2%	7%
96	CSc1nc2ccccc2n1CC(=O)Nc1ccc(C)c(C)c1	-22%	-18%
97	CCOC(=O)/C=C(C)\C=C\c1c[nH]c2ccccc12	-10%	-21%
98	CNC(=O)c1ccc(-n2cccn2)nc1	8%	5%
99	CC(=O)Nc1ccc(S(=O)(=O)N(C)CC(=O)OCC(=O)NC(C)C23CC4CC(CC(C4)C2)C3)cc1 (stereo not drawn)	-5%	-6%
100	CCCCN1CC(N2CCN(Cc3ccccc3)CC2)CS1(=O)=O (stereo not drawn)	-9%	-6%

Other records follow:
No.	Molecule	VACV mCherry inh	Vaccinia Venus
101	CCOc1ccc(CNC(=O)C2CCCN(c3nn4cc(-c5ccc(F)cc5)nc4s3)C2)cc1 (stereo not drawn)	-18%	-20%
102	COc1cccc(NC(=O)Cn2cc(C(=O)c3ccco3)c3ccccc32)c1	-17%	-12%
103	COc1ccc(CCNC(=O)CN(c2ccccc2OC)S(=O)(=O)c2ccc(C)cc2)cc1	-17%&-21%	-22%&-17%
104	O=C(c1ccccc1)c1ccc(C(=O)N2CCN(c3ccccc3)CC2)cc1	i	-17%
105	O=C(CN1c2cccc3cccc(c23)S1(=O)=O)Nc1ccc(S(=O)(=O)N2CCOCC2)cc1	-8%	1%

Screening data deposited in PubChem by National Center for Advancing Translational Sciences (NCATS).
